Screening results (PubChem BioAssay)
CtBP-E1A blk: CtBP/E1A binding inhibition; AlphaScreen GST-E1A/His-CtBP binding, 1536-well; stronger effect = lower value; control for the full effect not named in the record; activity change, % (no concentration beside the values); actives 0.49% (n = 340,000); in the data active means activity change below about -65%; inconclusive means about -30% to -65%; inactive means above about -30%; also: % is scaled to controls: 0 for no effect and ±100 for the full control effect; compound concentration not given in the record
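AlphaScreen with 125 nM GST-E1A and 125 nM His-CtBP (5X stocks) in Tris pH 8.0, 300 mM NaCl, BSA, Tween 20, TCEP. Compounds preincubated 2 h at 37 deg C, then glutathione donor/nickel acceptor beads added for 1 h at 37 deg C in dark.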
ClpP mod: qHTS Assay for Activators of ClpP | actives 1.9% (n = 340,000) | purified B. subtilis ClpP, FRET peptide cleavage, 20 min | AID 651965, 2013 | Potency, µM (highest dose often 57.5 µM), without a hit: top-dose activity change, negative = active | ATP-dependent Clp protease proteolytic subunit (Bacillus subtilis (strain 168)), P80244; active = well fitted falling curve with a large enough effect; inconclusive = small, poorly fitted or top-dose-only effect; inactive = no such curve, though single readings can be large or run the other way; also: potency is read from the fitted curve at half-maximal effect; the source files actives as falling curves though it sought activators and does not explain the sign; nearly all actives have a fitted effect of over 65% in size; many hits overshoot -100%
Target sequence (P80244 whole entry, looked up): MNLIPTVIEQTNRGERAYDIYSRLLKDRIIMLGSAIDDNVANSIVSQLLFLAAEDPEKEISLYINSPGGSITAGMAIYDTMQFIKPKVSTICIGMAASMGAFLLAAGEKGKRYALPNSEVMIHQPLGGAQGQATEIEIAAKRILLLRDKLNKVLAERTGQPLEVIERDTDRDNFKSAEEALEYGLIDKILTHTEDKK
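Purified B. subtilis ClpP, 10 microg/mL final in Tris/HCl pH8 with KCl, BSA, glycerol and Tween-20, cleaved an Abz/nitrotyrosine-quenched decapeptide. Fluorescence (ex 320, em 430) was read at 0 and 20 min at room temperature. Delta was normalized to 5.8 microM ADEP and DMSO/no-enzyme controls.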
Starred values were filed as active, the others as inactive; ? = inconclusive; & = joins results of further samples. The list is partial. The share of hits here may be higher or lower than overall.

SMILES | CtBP-E1A blk | ClpP mod
CCC(c1nnnn1-c1ccc2c(c1)OCCO2)N1CCN(c2ncccc2C(F)(F)F)CC1 (stereo unspecified) | 2.9&2.9 | ?
O=C(NCc1ccccc1)C(c1ccco1)N1CCN(C(=O)C2CCCO2)CC1 (stereo unspecified) | 4.2 | -0.3%
CN[C@@H](CO)C(=O)NC[C@H]1O[C@@H](n2cnc3c(=O)[nH]c(N)nc32)[C@H](O)[C@@H]1O | 6.2 | 2.3%
COC(=O)Cn1c2ccccc2c(=O)n1C(C)CBr (stereo unspecified) | 11.2 | 4.7%
C[C@@H](NC(=O)[C@@H]1CCCN1C(=O)[C@@H]1CCCN1C(=O)c1cccc2ccccc12)c1ccccc1 | -6.4 | -1.4%
COc1ccc(C(O)c2ncc(-c3ccccc3C)[nH]2)cc1F (stereo unspecified) | -4.7 | -1.8%
CCCCc1c(-c2cccc(F)c2)ncn1CCc1ccccc1OC | 5.2 | -7.2%
COCCNC(=O)c1cccc2c(-c3ccnn3C)coc12 | -10.3 | -1.4%

Following part.
SMILES | CtBP-E1A blk | ClpP mod
CCCC(=O)N1CCC1(C)C(=O)Nc1cc(OC)ccc1OC (stereo unspecified) | 7.7 | -2.7%
CCOC(=O)C1=C(C)N=c2sc(=Cc3cc(Cl)c(OCC(=O)O)c(OC)c3)c(=O)n2C1c1ccccc1Cl (stereo unspecified) | -18.0 | -3.8%
CCOCCC(=O)Nc1ccc2c(c1)c(=O)n(C)n2Cc1cccc(C(F)(F)F)c1 | 3.1 | 4.8%
CC(C)N1CCC(C)(C(=O)Nc2ccccc2Oc2ccccc2)C1 (stereo unspecified) | 6.2 | -1.1%
COc1ccc(C(C(=O)NC2CCCC2)n2c(Cc3cc(F)cc(F)c3)nc3ccccc32)cc1 (stereo unspecified) | 2.0 | -1.0%
Cc1c(C(=O)NCCC#N)sc(=O)n1Cc1ccc(C(=O)N(C)C)cc1 | 6.0 | 0.3%
Cc1noc(C)c1S(=O)(=O)NC(=O)C1(C)CCN1C(=O)c1ccc(C2CCCCC2)cc1 (stereo unspecified) | 9.0 | -0.7%
CC(C)Cc1ccc(-c2cc3nc(NCc4cccc(Cl)c4)ccn3n2)cc1 | 5.9 | 5.0%

(listing goes on)
SMILES | CtBP-E1A blk | ClpP mod
Cc1cccc(-c2cnc(C(O)c3cc(C)cc(C)c3)[nH]2)c1 (stereo unspecified) | -15.6 | -1.6%
COc1ccc(NC(=O)C(c2ccc(C#N)cc2)n2c(=O)c(-c3ccco3)nc3ccccc32)cc1 (stereo unspecified) | ? | -7.7%
Cc1cc2nc(-c3ccc(Cl)cc3)c(CC3CCCCC3)n2c(C)c1Br | 4.2 | -1.5%
OC[C@@H]1CN(Cc2ccncc2)C[C@H](n2cnc3c(NC4CC4)ncnc32)O1 | 0.9 | -3.0%
COc1ccc(-c2csc(C(O)c3cccc(OC)c3)n2)cc1 (stereo unspecified) | 1.3 | -0.7%
O=C(NCc1ccccc1)c1[nH]c(C(F)(F)F)nc1-c1ccccc1 | -7.3 | -3.9%
O=C(NCC(F)(F)F)[C@H]1O[C@@H](n2ccc(=O)[nH]c2=O)[C@H](O)[C@@H]1O | -5.1 | -3.2%
C=CCNc1ncnc2c1ncn2[C@H]1CN(Cc2cc(OC)c(OC)c(OC)c2)C[C@@H](CO)O1 | 1.5 | -2.1%

(listing goes on)
SMILES | CtBP-E1A blk | ClpP mod
CC1(C(=O)NCc2ccc(F)c(F)c2)Cc2c(-c3ccc4c(c3)OCO4)ccnc2O1 (stereo unspecified) | -1.3 | 5.3%
O=c1[nH]c(=S)[nH]c2c1C(c1ccc(Cl)c(Cl)c1)OC(CCc1ccccc1)C2 (stereo unspecified) | -17.5 | -1.2%
CCCCc1ccc(S(=O)(=O)NC(=O)C2(C)CCN2C(=O)C/C=C/c2ccccc2)cc1 (stereo unspecified) | 0.2 | -0.3%
COC(=O)C1=CN(c2ccc(F)cc2)C(N)=C(C#N)C1c1cccc(F)c1 (stereo unspecified) | -5.5 | -3.6%
CS(=O)(=O)c1ccc(Nc2nc(C(N)COCc3ccccc3)cs2)cc1 (stereo unspecified) | 0.0 | -29.9%
CCOC(=O)C1(C)CCCN1C(=O)c1ccc(N(C)C)cc1 (stereo unspecified) | 0.3 | -0.1%
Cn1nc(C(C)(C)C)cc1C(=O)N1CCCCC1c1cc(C(=O)N2CCOCC2)no1 (stereo unspecified) | -0.9 | 2.4%
CC(C)S(=O)(=O)NC(=O)C1(C)CCN1C(=O)Cc1ccccc1Cl (stereo unspecified) | 3.9 | 1.0%

(listing goes on)
SMILES | CtBP-E1A blk | ClpP mod
CC(C)(O)C#Cc1cccc(-c2nc(C(=O)NCCCN3CCOCC3)cc3c2[C@H](CCO)N(S(=O)C(C)(C)C)C3)c1 (stereo partly specified) | 3.6 | -4.7%
COC(=O)[C@@]1(Sc2ccc(C)cc2)CC(=O)N[C@@H]1c1ccco1 | 0.0 | -0.4%
CC(O)(c1cccnc1)c1nc(-c2ccc3ccccc3c2)cs1 (stereo unspecified) | -13.3 | -10.0%
CC1(C(=O)Nc2ccc3c(c2)OCCO3)CCN1C(=O)C1(c2ccc(Cl)cc2)CCC1 (stereo unspecified) | -8.7 | 0.9%
Cc1cccc(C)c1C(O)c1ncc(-c2ccc(F)cc2)[nH]1 (stereo unspecified) | 0.4 | -0.5%
Cc1cccc(C)c1NC(=O)Nc1nnc([C@@H]2C[C@H](O)[C@@H](CO)O2)s1 | 5.9 | -1.4%
O=C(NCCc1ccccc1)Nc1nnc([C@H]2C[C@H](O)[C@@H](CO)O2)s1 | -12.4 | -5.8%
CCCc1nc2ccc(Cl)cn2c1Cc1ccccc1OC | 12.3 | -14.9%

New compounds follow:
SMILES | CtBP-E1A blk | ClpP mod
CCc1ccc([C@@H]2CC(=O)[C@@H]3CN(S(=O)(=O)c4ccc(Cl)cc4)[C@H](c4ccc(C)cc4)C[C@@H]3N2S(=O)(=O)c2ccc(C)cc2)cc1 | -6.8 | -1.0%
COC(=O)[C@]12CCCCC=C1N(CCC1=CCCCC1)C(=O)[C@H](CC(=O)NCc1ccccc1)C2 | -1.1 | -0.9%
C(=C\c1ccccc1)/CN1CCN(C(c2cccc3ccccc23)c2nnnn2-c2ccc3c(c2)OCCO3)CC1 (stereo unspecified) | -28.3 | -1.1%
COCCN(Cc1ccc(C)cc1)C(=O)[C@H]1O[C@@H](n2cnc3c(N)ncnc32)[C@H](O)[C@@H]1O | 9.8 | -0.7%
Nc1nc2ccccc2n1S(=O)(=O)c1ccc([N+](=O)[O-])cc1 | 24.2 | 1.5%
CCOC(=O)C1(C)CCN1C(=O)c1ccc(SC(F)(F)F)cc1 (stereo unspecified) | 4.8 | -0.3%
CN1CCN(c2ccc(CNC(=O)c3cccc4c(-c5ccc(F)c(F)c5)coc34)cc2)CC1 | ? | -0.5%
Cc1cccc(C)c1NC(=O)C1(C)CSCC(=O)N1CCc1c[nH]c2ccccc12 (stereo unspecified) | -7.2 | 1.0%

The listing continues:
SMILES | CtBP-E1A blk | ClpP mod
O=C(Nc1ccc2c(c1)OCCO2)C(c1ccnc2ccccc12)N1CCN(c2ccc(F)cc2)CC1 (stereo unspecified) | -19.1 | -3.2%
Cc1nc(C(F)(F)F)ccc1C(=O)N1CCC1(C)C(=O)NS(=O)(=O)c1ccc2ccccc2c1 (stereo unspecified) | -20.3 | -5.9%
O=C(NCc1ccc2c(c1)OCO2)OCc1ccccc1 | 0.0 | -2.0%
COCC(O)Cn1ccnc1N=Nc1ccccc1 (stereo unspecified) | -18.7 | -2.7%
O=C(NCc1ccc(Cl)cc1)c1ccc(-c2ccc(F)c(F)c2)c2ccoc12 | 19.1 | 4.4%
CCCCNC(=O)OC1CC2CC1[C@H]1CCCCN1C2=O (stereo partly specified) | 0.7 | 0.9%
CCCNC(=O)C1(C)CCCN(C(=O)Cc2ccc(OC)cc2)C1 (stereo unspecified) | 9.0 | -0.8%
CCCCC[C@H](C)N1C[C@H](COCc2ccccc2)Oc2cc(N3CC[C@@H](O)C3)ccc2S1(=O)=O | -2.5 | -15.7%

Five compounds drawn at random from the list so far, as already listed:
SMILES | CtBP-E1A blk | ClpP mod
O=C(Nc1ccc2c(c1)OCCO2)C(c1ccnc2ccccc12)N1CCN(c2ccc(F)cc2)CC1 (stereo unspecified) | -19.1 | -3.2%
CCCNC(=O)C1(C)CCCN(C(=O)Cc2ccc(OC)cc2)C1 (stereo unspecified) | 9.0 | -0.8%
COCC(O)Cn1ccnc1N=Nc1ccccc1 (stereo unspecified) | -18.7 | -2.7%
CCCCNC(=O)OC1CC2CC1[C@H]1CCCCN1C2=O (stereo partly specified) | 0.7 | 0.9%
O=C(NCc1ccc(Cl)cc1)c1ccc(-c2ccc(F)c(F)c2)c2ccoc12 | 19.1 | 4.4%

(continued)
SMILES | CtBP-E1A blk | ClpP mod
CC1(C(=O)NCCc2c[nH]c3ccccc23)CCN1CC1CCCCC1 (stereo unspecified) | -4.3 | 1.3%
CC1(c2nnnn2-c2ccc3c(c2)OCCO3)CCC(=O)N1CCOc1ccccc1 (stereo unspecified) | -0.3 | -1.3%
CCc1ccc(C(O)c2ncc(-c3cccc(F)c3)[nH]2)cc1 (stereo unspecified) | -4.9 | -0.4%
COCc1cccc(-c2csc(C(O)c3ccc(F)c(OC)c3)n2)c1 (stereo unspecified) | 3.7 | -2.3%
CC1(C(=O)Nc2ccc(F)cc2F)CCN1C(=O)Cc1ccccc1Cl (stereo unspecified) | -11.9 | -3.2%
CC(=O)Nc1cc(-c2cccc(NS(C)(=O)=O)c2)cn2c(-c3ccc(F)c(Cl)c3)cnc12 | -16.8 | -28.4%
CCOC(=O)N1CCN(C(=O)C[C@@H]2C[C@@]3(C(=O)OCC)CCCC=C3N(Cc3ccc4c(c3)OCO4)C2=O)CC1 | 0.1 | -1.3%
Cc1ccc(CN2CC(N3CCN(C4CCN(C)CC4)CC3)CS2(=O)=O)cc1 (stereo unspecified) | 6.9 | -0.9%

Next compounds follow:
SMILES | CtBP-E1A blk | ClpP mod
CC(C)=CCn1c2ccc(NC(=O)Nc3ccc(N(C)C)cc3)cc2c(=O)n1C | -19.3 | -24.9%
OC(c1ccc(F)cc1)c1ncc(-c2cccc(C(F)(F)F)c2)[nH]1 (stereo unspecified) | -3.7 | -5.2%
CC(C)c1ccc(CC(=O)N2CCC2(C)C(=O)Nc2ccccc2)cc1 (stereo unspecified) | 12.3 | 0.0%
OC(c1ccco1)c1nc(-c2ccc(F)c(Cl)c2)cs1 (stereo unspecified) | 0.4 | 0.6%
Cc1ccc(S(=O)(=O)N2[C@H](CC(=O)c3cccs3)OC[C@@H]2C)cc1 | 5.6 | -1.1%
O=C(Nc1cc(Cl)cc(Cl)c1)N[C@@H]1CC[C@@H](CCNS(=O)(=O)c2cccc(F)c2)O[C@@H]1CO | 0.3 | 0.4%
CC(C)Cc1ccc(-c2ccc3nccn3c2)cc1 | -12.4 | ?
CCOC(=O)[C@]12CCCC=C1N(Cc1ccco1)C(=O)[C@H](CC(=O)NCCC(C)C)C2 | 3.6 | -2.5%

The list continues.
SMILES | CtBP-E1A blk | ClpP mod
Cc1ccc(C(O)c2ncc(-c3ccccc3C)[nH]2)cc1 (stereo unspecified) | -24.1 | -2.5%
COCCNC(=O)C1(C)CCCN(C(=O)c2ccc(OC)cc2OC)C1 (stereo unspecified) | -2.2 | 1.1%
COCCc1ccc(OC2(C)CCN(Cc3cccc(OCOC)c3)C2)cc1 (stereo unspecified) | -12.1 | -1.8%
CN1CCCC1(C)C(=O)Nc1ccc(-n2cccc2)cc1 (stereo unspecified) | -13.7 | 0.6%
NC(c1csc(Nc2cc(Oc3ccccc3)ncn2)n1)c1ccccc1Cl (stereo unspecified) | ? | -9.9%
Nc1c(-c2ccc(C(F)(F)F)cc2)nc2ncccn12 | 0.7 | 0.5%
COc1ccc(CC(N)c2csc(Nc3ccccn3)n2)cc1 (stereo unspecified) | -91.7* | -4.2%
O=C(C[C@H]1CC[C@@H](NC(=O)Cc2cccnc2)[C@@H](CO)O1)NCc1ccc2c(c1)OCO2 | 0.6 | -2.7%

Continued:
SMILES | CtBP-E1A blk | ClpP mod
COCCNC(=O)C1Cc2c(-c3cccc(NC(C)=O)c3)ccnc2O1 (stereo unspecified) | 3.8 | -29.4%
O=C(NC1CCCCC1)C(C1CC1)n1c(=O)c(-c2ccccc2)nc2ccccc21 (stereo unspecified) | 1.5 | 4.7%
Cc1ccccc1NC(=O)Nc1nc(CN(C)C)cs1 | 3.9 | 0.2%
CCCCCCn1cc(CN2CC(N3CCCC3)CS2(=O)=O)nn1 (stereo unspecified) | -9.2 | -2.5%
Cn1ccc2c(N3CCC3)cc3c(c21)C1CCC3O1 (stereo unspecified) | -2.1 | -5.1%
COc1ccc(S(=O)(=O)N2CCCCC2c2cc(C(=O)Nc3ccc4c(c3)OCO4)no2)cc1 (stereo unspecified) | -9.8 | -3.0%
CCOC(=O)[C@]12CCCC=C1N(CCc1ccc(OC)c(OC)c1)C(=O)[C@H](CC(=O)NCc1ccc(C)o1)C2 | -19.3 | 0.1%
